ALR inh – inhibitors of human ALR sulfhydryl oxidase, primary screen, biochemical, H2O2 detection, HRP-luminol luminescence, single point. inhibition, % (concentration not given with the values). purified ALR, DTT oxidation. 3.8% of 290,000 active. FAD-linked sulfhydryl oxidase ALR (Homo sapiens), P55789. AID 485317, 2010;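 active = mean and each replicate at 75% or more; inconclusive = only one of the two met; inactive = neither met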;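 also: stock transfer was 7.5 nL into about 7.5 µL; 0% = neutral wells and 100% = wells with inactivated enzyme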
Target sequence (P55789 whole entry, looked up): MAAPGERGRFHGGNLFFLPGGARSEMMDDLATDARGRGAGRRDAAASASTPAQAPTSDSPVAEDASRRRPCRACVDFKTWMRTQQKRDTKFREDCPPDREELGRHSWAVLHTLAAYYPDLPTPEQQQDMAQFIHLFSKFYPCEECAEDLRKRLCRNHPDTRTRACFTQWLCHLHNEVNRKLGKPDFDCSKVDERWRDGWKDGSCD
Beta apoptosis – inhibitors of cytokine-induced beta cell apoptosis, primary screen, luminescence. INS-1E cytokine-induced death, ATP luminescence, 48 h; percent of positive-control rescue, neutral wells zero. AID 435005, 2010. 0.8% of 300,000 active. protection from apoptosis, % (concentration not given with the values);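 active = all replicates at 75% or more, or half of them and the mean; inconclusive = half reach 75% but not the mean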;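 also: 0% = cytokine-treated negative control wells and 100% = positive control rescue; higher means more ATP so stronger rescue from cytokine killing; wells of about 40 µL received 100 nL stock; the first replicate is given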
T cruzi repl – inhibitors of intracellular T. cruzi growth, primary screen, luminescence, NIH3T3 host cells | T. cruzi beta-gal in NIH3T3, 90 h | inhibition, % (concentration not given with the values) | 1.4% of 300,000 active;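 active = mean inhibition across valid replicates above about 55%, limit read from the data; inconclusive = mean below that limit but half or more replicates reach it; inactive = mean below it, under half of replicates reach it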;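 also: signal also drops with host cell toxicity which is not excluded here; 0% = plate median of DMSO wells and 100% = zero luminescence signal; higher percent means less beta-gal luminescence so fewer parasites; stock transfer was 50 nL into about 50 µL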
A1 inh – caspase 3/7 activation in MEF A1-2A-BIM cells, primary screen, A1 inhibitor project, cell-based, luminescence, HTS; Caspase-Glo 3/7 luminescence, 3 h; percent of clofoctol response, vehicle zero; AID 2462, 2010; 0.066% of 330,000 active; caspase activation, % (concentration not given with the values);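 active = over half of replicate activation scores above 10%, or exactly half above 10 with the replicate mean above 10; inconclusive = replicate mean below 10 yet half the replicates above 10; inactive = over half of replicates below 10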;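 also: wells of about 30 µL received 50 nL stock; many hits fall short of the cut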
Beta2AR agonist – beta2AR agonists driving receptor internalization, primary screen, cell-based, FAP fluorogen, flow cytometry; Beta-2 adrenergic receptor (Homo sapiens), P07550; AID 504454, 2011; response, % (concentration not given with the values); 0.43% of 340,000 active; Am2.2-beta2AR cells; reference of the scale not given here;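 active = response above a set limit, near 3 SD of response in nonfluorescent compounds, cut at about 42% in these data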;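 also: stock transfer was 100 nL into about 11 µL; a reference agonist was the positive control; negative values mostly stem from fluorescent compounds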
Target sequence (P07550 whole entry, looked up): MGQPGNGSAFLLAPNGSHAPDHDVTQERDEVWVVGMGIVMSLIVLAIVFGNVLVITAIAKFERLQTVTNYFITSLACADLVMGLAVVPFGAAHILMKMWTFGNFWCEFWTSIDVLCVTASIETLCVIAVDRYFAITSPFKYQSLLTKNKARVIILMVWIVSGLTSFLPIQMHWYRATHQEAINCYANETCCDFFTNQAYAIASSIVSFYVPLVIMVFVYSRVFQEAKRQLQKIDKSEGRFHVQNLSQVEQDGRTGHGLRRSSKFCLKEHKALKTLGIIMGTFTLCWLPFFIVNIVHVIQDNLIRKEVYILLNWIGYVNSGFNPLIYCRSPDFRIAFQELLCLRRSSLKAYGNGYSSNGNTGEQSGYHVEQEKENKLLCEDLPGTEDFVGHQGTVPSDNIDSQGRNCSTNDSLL
Ecoli rRNA inh – reduced GFP signal of wild-type E. coli, primary screen, bacterial rRNA inhibitor project, GFP/RFP fluorescence, OD600, single point; E. coli WT GFP vs humanized-ribosome RFP mutants, 24 h; active compounds read low; DMSO median 0, no signal -100; GFP signal change (wild-type ribosome), % (test concentration not listed); 1.6% of 350,000 active; AID 720706, 2013;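 active = significant combined selectivity score with lowered wild-type GFP, culture density cut under 30%, mutant RFP and density less affected; inactive = any of these conditions unmet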; also: one replicate is shown; some compounds called inactive have numbers as strong as hits
LANA-H2B inh – blockers of LANA interaction with H2A/H2B – biochemical, FP readout, HTS, primary screen; Protein LANA1 (Human herpesvirus 8 type P (isolate GK18)), Q9QR71; AID 2629, 2010; 0.6% of 320,000 active; inhibition, % (concentration not given with the values); cell-free LANA-H2A/H2B peptide, fluorescence polarization; in the data active = inhibition mostly above about 10%, no sharp cut-off; inactive = mostly below about 6.7%;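 also: stock transfer was 7.5 nL into about 10 µL; 0% = median of vehicle wells and 100% = median of positive control wells; one replicate is shown; the record names a cut of 25% in any replicate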
Calb FLC – C. albicans growth inhibition with fluconazole, primary screen, CaCi-2 strain, Alamar Blue fluorescence; growth inhibition, % (concentration not given with the values); C. albicans CaCi-2 (fluconazole-resistant clinical isolate) + fluconazole, 48 h; AID 1979, 2009; 0.57% of 300,000 active;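 active = most replicates above 75%; inconclusive = exactly half above 75%; inactive = most below 75%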;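 also: all wells also contain fluconazole at 8 µg/ml as a sub-toxic cotreatment; 0% = median of DMSO wells and 100% = median of geldanamycin control wells; wells of about 8 µL received 7.5 nL stock; the first replicate is given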
Ecoli rRNA inh OD600 – recorded beside Ecoli rRNA inh, whose call it bears; OD600 change, %; measured here: OD600 growth;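 optical density of the mix in the first replicate; 0 = DMSO median and -100 = no signal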
Ecoli rRNA inh RFP – recorded beside Ecoli rRNA inh, whose call it bears; RFP signal change, %; measured here: RFP humanized mutant strains;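 first replicate; 0 = DMSO median and -100 = no signal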
An asterisk follows results filed as active; u = inconclusive; x = not tested or not shown. Only part of the results is shown, so the mix of outcomes need not match the whole.

SMILES | ALR inh | Beta apoptosis | T cruzi repl | A1 inh | Beta2AR agonist | Ecoli rRNA inh | Ecoli rRNA inh OD600 | Ecoli rRNA inh RFP | LANA-H2B inh | Calb FLC
O=C(NCCc1ccc(F)cc1)Nc1ccc2c(c1)OCO2 | -10 | 0 | 5 | -1.7 | 2 | 2 | 7 | 1.2 | -0.1 | -1
COc1ccc(CNC(=O)COc2cc(O)c3c(c2)OC(C)(C)CC3=O)cc1 | 27 | -1 | -2 | 0.5 | -5 | -12 | -3 | -3.3 | -4.0 | -5
CN1C(=O)C(C)(C)c2cc(S(=O)(=O)N3CCC(C(=O)NCc4ccc(F)cc4)CC3)ccc21 | 3 | 6 | -1 | 0.1 | 8 | 3 | 0 | 0.4 | 3.4 | -3
Cc1cc2c(cc1C)CSC(c1ccc3ccccc3c1O)SC2 | -13 | -1 | -5 | -1.1 | 6 | x | x | x | 2.7 | -33
CCOC(=O)C1CCN(S(=O)(=O)c2ccc(OC)c(Cl)c2)CC1 | 1 | -3 | -4 | -1.5 | 6 | 9 | 13 | 0.8 | 2.7 | 21
O=C(CN1C(=O)C2CC=CCC2C1=O)Nc1nccs1 (centres undefined) | 0 | x | 1 | 1.0 | -3 | x | x | x | -3.3 | -1
Cc1ccc(S(=O)(=O)Oc2ccccc2/C=N/NC(=O)c2c(Cl)cnn2C)cc1 | x | 2 | 4 | 0.9 | -2 | x | x | x | 0.3 | -1
O=C(c1ccc2c(c1)OCO2)C1CCCN(C(=O)C2CCOCC2)C1 (centres undefined) | -4 | -1 | -4 | 0.4 | 1 | -2 | 1 | -2.1 | 6.3 | -8
N#CC1c2ccccc2C=CN1C(=O)c1ccccc1 (centres undefined) | -23 | -5 | 8 | 1.6 | -3 | -2 | 3 | -2.0 | -1.6 | 3
Cn1cc(-c2nnnn2-c2cccc(C(F)(F)F)c2)c(C(F)(F)F)n1 | 0 | 0 | -13 | 0.6 | -1 | x | x | x | -1.9 | -14
CC(C)COc1ccc(C2NC(=O)NC2=O)cc1 (centres undefined) | -9 | -3 | 5 | -0.2 | -10 | x | x | x | -1.8 | -10
CCOc1ccc(S(=O)(=O)N2CCN(C(=O)CCC(=O)N3CCOCC3)CC2)cc1 | 2 | 2 | 9 | 0.3 | -9 | 9 | 18 | -1.1 | -2.0 | -1
O=C(Nn1cnnc1)C(Sc1ccccc1)c1ccccc1 (centres undefined) | -11 | -5 | -9 | 0.0 | -3 | x | x | x | 5.5 | -1
C[C@H](CO)N1C[C@H](C)[C@@H](CN(C)C(=O)Nc2ccccc2)Oc2c(NC(=O)c3ccncc3)cccc2C1=O | x | -8 | x | 0.3 | -6 | 4 | 11 | -6.4 | 3.6 | x
CN(C1CCS(=O)(=O)C1)S(=O)(=O)c1ccc(C2CCCCC2)cc1 (centres undefined) | -5 | 9 | -7 | -1.0 | -5 | 7 | 5 | -8.2 | -4.3 | -22
COc1ccccc1C(=O)C1CCCN(C(=O)CCC(=O)c2ccccc2)C1 (centres undefined) | 0 | -2 | -7 | -0.5 | -1 | -28* | -13* | -1.6* | 0.3 | -2
CN(C)/C=C/C(=O)c1ccc(F)cc1 | -2 | 3 | 0 | -0.3 | 0 | 1 | 8 | -2.8 | 3.7 | -20
Cc1nc(C)c(-c2csc(Nc3ncccc3C)n2)s1 | -1 | -4 | 6 | -4.0 | -9 | -4 | -5 | 1.3 | -6.6 | -7
CCc1ccc(-c2nc(SCC(=O)NC3CCS(=O)(=O)C3)n[nH]2)cc1 (centres undefined) | 7 | -3 | 1 | -0.3 | 2 | 7 | 5 | 2.0 | -1.8 | 1
CCOc1ccc(N(CC(=O)NCc2ccccc2OC)S(C)(=O)=O)cc1 | -19 | -5 | 8 | 0.8 | -1 | x | x | x | -1.3 | 1
CC(Oc1ccc(-c2nccc(-c3ccccn3)n2)cc1)C(=O)NN (centres undefined) | 0 | -5 | 6 | u | 2 | x | x | x | 0.0 | 14
CCCc1n[nH]c2c1/C(=N/O)CC(c1ccccc1)C2 (centres undefined) | -8 | 3 | 20 | -1.5 | -5 | x | x | x | 4.5 | 5
CC(=O)N/C(=N\c1nc(C)cc(C)n1)Nc1ccc(Cl)cc1Cl | -3 | 0 | -8 | 0.5 | -3 | 11 | 7 | 0.3 | 15 | -1
COc1ccc(CN2CCC(n3nccc3NC(=O)CCc3ccccc3)CC2)c(C)c1C | x | x | 21 | x | 2 | 1 | -11 | 2.7 | x | -15
Cc1csc(NC(=O)c2ccoc2C)n1 | 15 | 4 | 0 | -0.1 | -4 | x | x | x | 2.4 | 1
Following part
SMILES | ALR inh | Beta apoptosis | T cruzi repl | A1 inh | Beta2AR agonist | Ecoli rRNA inh | Ecoli rRNA inh OD600 | Ecoli rRNA inh RFP | LANA-H2B inh | Calb FLC
CSCCC(NC(=O)c1ccc(Cl)cc1)C(=O)OCC(=O)Nc1cc(Cl)ccc1C#N (centres undefined) | -17 | -7 | -25 | -0.3 | -12 | x | x | x | 3.4 | 12
CC(=O)c1ccc(OCc2cc(C(=O)N3CCC[C@H]3CO)no2)cc1 | 5 | -3 | -1 | 1.1 | -9 | 7 | 11 | 3.5 | -1.4 | -1
COc1ccc(N2CCN(C(=O)c3ccc4c(c3)[nH]c(=S)n3c5ccccc5nc43)CC2)cc1 | 15 | 3 | 4 | -0.6 | x | -20 | -28 | -11 | 2.3 | 33
CC(=O)Nc1ccc(NC(=O)CSc2nnc(-c3cc4ccccc4o3)n2C)cc1 | -4 | -2 | -5 | -0.2 | -7 | -1 | 9 | -0.2 | 3.5 | 0
O=C(O)c1ccc(NC(=O)c2ccccc2NC(=O)c2cccc(Br)c2)cc1 | x | -3 | 17 | 0.0 | 5 | 13 | 11 | -0.2 | -2.4 | 4
CC1CCN(C(C(=O)O)c2ccccc2)CC1 (centres undefined) | -8 | -8 | -23 | 0.1 | -10 | 12 | 15 | 0.9 | 9.0 | 10
COc1cccc(-c2nn(-c3ccccc3)cc2CN(C)Cc2c(C)nc3ccccn23)c1 | -14 | -1 | 1 | -0.3 | -9 | -58 | -67 | -18 | x | 6
O=C(NCc1c(Cl)cccc1Oc1ccccc1)c1ccccc1 | x | x | 19 | 0.1 | -3 | 5 | 11 | 4.3 | -0.7 | -12
Cc1ccc(C)c(NC(=O)CN(C)S(=O)(=O)c2ccccc2)c1 | -1 | 0 | 2 | -4.0 | 3 | 9 | 10 | -2.7 | 3.7 | -11
CCn1cc(Cl)c(C(=O)NNC(=O)CCn2cc([N+](=O)[O-])cn2)n1 | -1 | -2 | -12 | 0.1 | 18 | 14 | 7 | 0.1 | -1.9 | -2
Cc1cccc(Oc2ccc(NC(=O)C3CC=CCC3C(=O)O)cc2)c1 (centres undefined) | 55 | -3 | -7 | 0.8 | 2 | -30 | -28 | -4.0 | 5.3 | -5
CCc1ccccc1NC(=O)CSc1nc(-c2ccccc2)nn1C(=O)c1cccc([N+](=O)[O-])c1 | -6 | -6 | -12 | -0.4 | x | x | x | x | -3.5 | 30
N/C(=N\OC(=O)c1ccco1)c1ccccn1 | -6 | 2 | -25 | -6.7 | -1 | 8 | 8 | 0.1 | -1.8 | 4
COc1ccc(C)cc1S(=O)(=O)NCCN1CCOCC1 | x | -2 | 2 | 0.4 | 7 | 6 | 11 | -0.6 | 7.3 | -4
CC(=O)c1cnc2nc(SCc3ccccc3C)nn2c1C | -4 | -1 | 3 | 0.4 | 34 | -3 | -5 | -2.5 | -6.4 | -9
CCOc1ccc(NC(=O)CSc2nc(=O)n(Cc3cccnc3)c3c2CCC3)cc1 | 99* | x | -2 | -0.7 | -8 | -1 | -1 | -0.3 | 0.2 | -6
O=C(COC(=O)c1ncc(Cl)c(Cl)c1Cl)NCCc1ccccc1 | 3 | -2 | -22 | 0.0 | -2 | -2 | -6 | 0.7 | -5.4 | -1
O=C(NCC1CCCO1)C(=O)N/N=C/c1cc(Cl)ccc1O (centres undefined) | 0 | -1 | 1 | 0.1 | 10 | -4 | 2 | 2.1 | 5.9 | 1
Cc1ccc(S(=O)(=O)Nc2ccc(S(=O)(=O)Nc3nccs3)cc2)c([N+](=O)[O-])c1 | -3 | -7 | -14 | -0.1 | -15 | 10 | 5 | -0.3 | -3.9 | -8
CCCNC(=O)COc1ccc(S(=O)(=O)Nc2ccc(C)cc2)cc1 | x | x | 4 | x | 2 | 0 | -18 | 7.3 | x | 1
Cc1ccc(NC(=O)CCSc2nnc(-c3ccco3)o2)cc1 | -8 | x | -5 | 0.8 | -6 | x | x | x | 1.6 | 18
CCC(C)(C)C1CCC2(CC1)NC(=O)N(CC(=O)N(C)Cc1ccc(OC(F)F)cc1)C2=O (centres undefined) | -1 | x | 15 | 0.1 | 11 | 2 | 1 | -0.4 | -6.6 | -5
c1csc(CN2CCOCC2)c1 | x | -2 | -12 | 0.3 | 20 | 0 | 11 | 1.0 | -2.7 | 2
CC(=O)c1sc(NC(=O)COc2ccccc2)nc1C | -1 | 2 | 0 | 0.0 | -11 | 13 | 11 | 6.6 | -7.0 | -21
CC(=O)c1c(C)[nH]c(C(=O)CN2CCN(S(=O)(=O)c3ccccc3)CC2)c1C | -1 | u | x | 2.9 | 5 | 9 | -1 | 9.6 | 4.3 | x
(next part)
SMILES | ALR inh | Beta apoptosis | T cruzi repl | A1 inh | Beta2AR agonist | Ecoli rRNA inh | Ecoli rRNA inh OD600 | Ecoli rRNA inh RFP | LANA-H2B inh | Calb FLC
O=C(CNCc1ccc(Cl)cc1)Nc1ccc2c(c1)OCCO2 | -4 | -2 | -8 | 1.5 | 0 | -20 | -17 | -2.9 | -1.8 | -8
CCOC(=O)N1CCC(NC(=O)c2cc(C(=O)NC3CCCC3)ccc2CO)CC1 | -17 | -3 | 1 | 0.1 | -7 | 7 | 13 | 0.0 | 1.2 | -3
O=[N+]([O-])c1ccccc1S(=O)(=O)Nc1cccc(-c2ccc3nncn3n2)c1 | -4 | 0 | 5 | -0.3 | 9 | 0 | -3 | 0.7 | 2.3 | 4
COc1cc(NC(=O)C2=C(N3CCOCC3)/C(=C/c3ccc(Cl)cc3)CC2)cc(OC)c1OC | -1 | x | 15 | 0.5 | 22 | x | x | x | 5.0 | -2
Cc1cc(C)nc(/N=C(\NC(=O)C(C)(C)C)Nc2ccc(F)cc2)n1 | 1 | -2 | 7 | 0.4 | 5 | -2 | 14 | -1.1 | 0.2 | 0
CC(C)c1ccc(N(CC(=O)NC2CCCC2)C(=O)CCC(=O)Nc2ccccn2)cc1 | x | -8 | -3 | 0.3 | 4 | 0 | 5 | -2.0 | -1.7 | 5

Source: PubChem BioAssay (several laboratories)
